Calb biofilm kill: mixture kills Candida albicans biofilm cells. inhibition, % at 7.6 µM. 0.02% of 120,000 active. C. albicans biofilm persisters + clotrimazole, fluorescence viability; primary screen in compound mixtures of four per well;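 active = inhibition above 30.3% in the primary screen of four-compound pools, then above 30% when the compound was retested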;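 note: compounds exposed to preformed 24 h biofilms for 48 h; the number belongs to the whole pool; some results filed as inactive read as strong as hits; inactives centre near 12; 0% = biofilm with clotrimazole alone and 100% = kill control; retested singly at about 60 µM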
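System: C. albicans CAF4-2 wild-type biofilms; Medium: RPMI/MOPS medium, pH 7.0; Reagent: Clotrimazole, 50 µg/mL; Times: biofilm formation 24 h, compound exposure 48 h, 37 °C; Detection: 2-h Alamar Blue fluorescence, 535/590 nm excitation/emission; Evaluation: percent inhibition of biofilm viability.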
The depositor's hits bear a star. Some of the compounds tested (hit frequency here may not be typical).

smiles	Calb biofilm kill
CC1CCc2c(sc3ncn(N)c(=N)c23)C1 (centres undefined)	10
COc1cc(C(=O)NC(=S)Nc2ccc(NC(=O)c3ccco3)cc2)cc(OC)c1OC	23
Cc1c(NCc2ccccc2O)c(=O)n(-c2ccccc2)n1C	11
O=C(CCCOc1ccc(Cl)cc1Cl)NCC1CCCO1 (centres undefined)	14
OCCC1CN(Cc2ccncc2)CCN1C1CCCC1 (centres undefined)	16
Cn1nc([N+](=O)[O-])nc1Oc1ccc(C(C)(C)C)cc1	10
Cc1ccc(S(=O)(=O)N2CCC(=O)N(CCOCc3cccc(C(F)(F)F)c3)CC2)cc1	3
CC(C)(C)c1ccc(-c2nc(NCc3cccnc3)c3ccccc3n2)cc1	4
FC(F)(F)c1cnc(COc2cc(Cl)cc(Cl)c2)c(Cl)c1	10
COc1ccc(/C=C/C(=O)OC2CCCN(C)C2)cc1 (centres undefined)	11
Nc1[nH]ncc1-c1ccc(F)cc1	15
S=C(NCc1ccco1)N1CCN(c2ccccn2)CC1	14
Cc1ccc(C(=O)C(C)N(C(=O)c2ccc(Cl)cc2Cl)N2C(=O)CCCC2=O)cc1 (centres undefined)	-5
CCCCC(=O)Nc1ccc(NC(=O)c2cccs2)cn1	10
Brc1ccc(-c2csc(NC3=NCCCCC3)n2)cc1	13
CC(=O)c1cnc2cc(-c3cccc(Br)c3)nn2c1C	35
COC(=O)c1sc(NC(=O)COc2c(C)cccc2C)nc1C	15
CCOc1cc(-c2nc(C)c(C(C)=O)n2O)ccc1OCC(=O)Nc1cccc(C)c1	15
CSC(=NCc1ccco1)NC#N	27
Cc1cc(Cl)ccc1N(CC(=O)NCc1ccc2c(c1)OCO2)S(C)(=O)=O	6
CCOc1ccc(/C=N/NC(=O)c2ccc(Cn3cc(Br)cn3)o2)cc1	5
COc1ccc(CN2CCN(C(=O)c3ccc4nc(N5CCOCC5)sc4c3)CC2)c(OC)c1OC	10
O=C1NN(c2ccccc2)C(=O)/C1=C/c1coc2ccccc2c1=O	0
CNC(=S)N/N=C/c1cc(C)n(-c2ccc(Cl)c(Cl)c2)c1C	7
CN(C(=O)CCc1ccccc1)c1nnc(-c2ccncc2)s1	27
O=C(N/N=C/c1ccc(C(F)(F)F)cc1)c1ccc(O)cc1	-5
CN1c2ccccc2C(C)(C)C12CC(c1cccc(S(=O)(=O)N3CCCC3)c1)=NO2 (centres undefined)	7
CC(=O)Nc1cccc(Oc2ncnc3scc(-c4ccc(C)cc4)c23)c1	15
O=C(CN1CCN(Cc2ccc3c(c2)OCO3)CC1)Nc1ccc(N2CCOCC2)cc1	14
c1ccc(CN2CCN(C(c3ccccc3)c3nnnn3Cc3ccccc3)CC2)cc1 (centres undefined)	13
COc1cc(C(C[N+](=O)[O-])c2c(C)[nH]c3ccccc23)ccc1O (centres undefined)	7
Cc1cc(C)nc(SCC(=O)NC2CCCC2)n1	10
COC(=O)Cn1c(=NC(=O)c2cc(OC)cc(OC)c2)sc2cc(OC)ccc21	5
Cc1cc(C(=O)COC(=O)c2nc3nccc(C)n3n2)c(C)n1CC1CCCO1 (centres undefined)	-8
CC(=O)c1ccc2noc(-c3ccc(F)cc3)c2c1	17
Cc1ccccc1NC(=S)NCCc1ccc(S(N)(=O)=O)cc1	-2
COC(=O)c1sccc1NC(=S)N1C(C)CCCC1C (centres undefined)	-8
CSCCC1NC(=O)N(CC(=O)Nc2ccc(-c3ccccc3)cc2)C1=O (centres undefined)	15
COCCNC(=O)Cn1cc(C(=S)N2CCOCC2)c2ccccc21	11
Cc1ccc2nc(-c3ccc(NC(=O)COC(=O)c4ccco4)cc3)sc2c1	16
Cc1onc(-c2ccccc2)c1C(=O)N/N=C/c1cn(C)c2ccccc12	20
CSc1ccc(/C=N/NC(=O)c2cccc(Cl)c2)cc1	11
CC(C)C(=O)NC(=S)N1CCc2ccccc21	6
CC(C)(C)NC(=O)C(=O)NCc1ccncc1	15
c1ccc(N/N=C(\Cc2ncc[nH]2)c2ccccc2)cc1	16
Cc1cc(Cl)ccc1NC(=S)NCc1ccc(S(N)(=O)=O)cc1	7
c1ccc(Cn2c(NCc3ccncc3)nc3ccccc32)cc1	5
O=C(Nc1ccccc1N1CCCC1)c1cc(Cl)ccc1Cl	16
CCN(Cc1ccccc1)C(=O)C1CCN(C/C(C)=C/c2ccccc2)CC1	9
Cc1nn(CC(=O)Nc2ccc(Cl)cn2)c(C)c1Br	8

Some of these compounds in order of heavy-atom count, ascending.
smiles	Calb biofilm kill
Cc1cc(C)nc(SCC(=O)NC2CCCC2)n1	10
c1ccc(N/N=C(\Cc2ncc[nH]2)c2ccccc2)cc1	16
c1ccc(CN2CCN(C(c3ccccc3)c3nnnn3Cc3ccccc3)CC2)cc1 (centres undefined)	13

(list continues)
smiles	Calb biofilm kill
CCC(C)NC(=O)C1CCCN1S(=O)(=O)c1ccc(Cl)cc1 (centres undefined)	8
C=C(C)C1CC=C(C)/C(=N/NC(=O)c2ccccc2[N+](=O)[O-])C1 (centres undefined)	14
CCCCCCNc1nc(Cl)nc(NC(C)(C)CO)n1	4
Cn1nc(C(=O)Nc2sc3c(c2C#N)CCCC3)ccc1=O	11
CN(C)/C=C/C(=O)c1cccc([N+](=O)[O-])c1	-12
CC1=Nc2cccc([N+](=O)[O-])c2NC(=O)C1	16
Cc1onc(-c2c(F)cccc2Cl)c1C(=O)OCn1nnc2ccccc2c1=O	15
Cc1cc(NC(=O)C2CCCCC2)ncc1NC(=O)c1ccccn1	24
CC1CC(NC(=O)/C(C#N)=C/c2ccc[nH]2)CC(C)(C)C1 (centres undefined)	19
O=C1OCCC1Sc1nnc(-c2ccc(F)cc2)n1Cc1ccccc1 (centres undefined)	7
O=C(c1cccc2c1-c1ccccc1C2)N1CCCCC1	28
CCN(CC)S(=O)(=O)c1ccc(Oc2ccccc2)c(N)c1	12
O=C(COc1ccc(Br)cc1)N1CCOCC1	13
C/C(=N/NC(=O)C(C)n1nc(C)c([N+](=O)[O-])c1C)c1ccc(OCC(N)=O)cc1 (centres undefined)	33
Cc1ccn2cc(-c3cccc(NC(=O)c4ccccc4)c3)nc2c1	10
O=C(CN(C(=O)CNC(=O)c1ccco1)c1ccc2c(c1)OCCO2)NC1CCCC1	17
COc1ccc(NC2=C(C(C)=O)C(c3ccccc3)C(C(C)=O)C(C)(O)C2)cc1 (centres undefined)	1
COc1cc2c(cc1OC)C1=CC(=O)C(=O)N1C(C)(C)C2	23
CC(NC(=S)Nc1c(Cl)cccc1OC(F)F)C(C)(C)C (centres undefined)	11
CCn1c2ccccc2c2cc(N=C3SC(CC(=O)Nc4ccccc4OC)C(=O)N3CCOC)ccc21 (centres undefined)	9
CCn1c(SCC(=O)N/N=C/c2ccncc2)nc2ccccc21	5
CCOc1ccc(-n2c(=O)c3sccc3n(CC(=O)Nc3cccc(OC)c3)c2=O)cc1	-4
N#Cc1c(N2CCOCC2)nsc1-c1ccc(C(F)(F)F)cc1	26
CCC(=O)NCCCNc1nc2c(C)cccc2cc1C#N	17
Cc1nonc1CC(=O)N1CCc2c([nH]c3ccccc23)C1c1ccccc1F (centres undefined)	-5

Exported field by field: part of the list above.
molecule: CN(C)/C=C/C(=O)c1cccc([N+](=O)[O-])c1
  Calb biofilm kill: -12

molecule: COc1cc2c(cc1OC)C1=CC(=O)C(=O)N1C(C)(C)C2
  Calb biofilm kill: 23

The list continues:
smiles	Calb biofilm kill
O=c1c2[nH]c3cccc(Cl)c3c2ncn1Cc1ccco1	10
CCOC(=O)c1c(C)[nH]c(C)c1C(=O)COC(=O)c1cc2ccccc2cc1O	12
Cc1ccc(C)c(NC(=S)Nc2ncccc2C)c1	5
O=C(NNc1c(Cl)cccc1Cl)c1c(F)cccc1Cl	22
CN(Cc1nc(-c2cnccn2)no1)C1CC(C)(C)NC(C)(C)C1	25
COc1ccc(/C=C2\SC(=S)N(Cc3cccnc3)C2=O)cc1C	24
CC(O)CNCCCCOc1ccc(OCc2ccccc2)cc1 (centres undefined)	10
COc1cccc(-n2c(SCC(=O)c3c[nH]c4ccccc34)nc3ccccc3c2=O)c1	13
O=C(Cc1ccccc1)N/N=C/c1ccc2c(c1)OCO2	5
CCc1cccc(N(C)C(N)=Nc2cccc3ccccc23)c1	11
CO/N=C(\N)c1nonc1N	22
COc1cccc(C=Nc2ccccc2C(=O)Nc2ccccc2)c1O	11
CC(=O)c1ccc(-n2nnnc2SCC(=O)Nc2sc(C)c(C)c2C#N)cc1	17
O=C(C1=C[C@@H](c2ccccc2)C[C@@H](OCc2ccc(CO)cc2)O1)N1CCN(Cc2ccc3c(c2)OCO3)CC1	20
CC(Oc1ccccc1)C(=O)N1CCN=C1SCc1ccccc1F (centres undefined)	4
CC(C)(C)c1nnc(NC(=O)c2cccnc2Cl)s1	8
COCc1cc(C)n(CC(=O)Nc2c(C)cccc2C)c(=O)c1C#N	29
C#CCOc1c(Cl)cc(/C=N/NC(N)=S)cc1OCC	6
COc1ccccc1N(CC(=O)NC(C)C)S(=O)(=O)c1cccs1	14
COc1ccccc1C(=O)N/C(=C\c1ccc(Br)cc1)C(=O)NCCC(=O)O	49
O=C(COc1ccc(S(=O)(=O)Nc2ccccc2)cc1)NCc1cccnc1	7
CCOC(=O)c1c(N2C(=O)CC(Sc3ccccc3C(=O)O)C2=O)sc2c1CCCC2 (centres undefined)	7
O=C(c1ccc2c(c1)[nH]c(=S)n1c3ccccc3nc21)N1CCN(c2cccc(Cl)c2)CC1	19
Cc1ccccc1-n1c(O)c(C=NC2CCS(=O)(=O)C2)c2ccccc2c1=O (centres undefined)	17
O=C(Nc1ccc2c(c1)CCC2)c1cccs1	4

Some of the entries so far, field by field:
> O=C(C1=C[C@@H](c2ccccc2)C[C@@H](OCc2ccc(CO)cc2)O1)N1CCN(Cc2ccc3c(c2)OCO3)CC1
  Calb biofilm kill = 20

> Cc1ccc(C)c(NC(=S)Nc2ncccc2C)c1
  Calb biofilm kill = 5

> CC(Oc1ccccc1)C(=O)N1CCN=C1SCc1ccccc1F (centres undefined)
  Calb biofilm kill = 4

> O=c1c2[nH]c3cccc(Cl)c3c2ncn1Cc1ccco1
  Calb biofilm kill = 10

Remaining list, next part.
smiles	Calb biofilm kill
CCC1CCCCN1CCCNC(=O)c1cc2c(=O)[nH]c3ccccc3c2n1C (centres undefined)	14
CC(C)=CCCC1=CCC2C(=O)NNC(=O)C2C1 (centres undefined)	15
O=C1CCN(C(=S)NCc2ccccc2)CC1	9
COc1ccc(C(=O)O)cc1S(=O)(=O)NCCN(C)C	25
COC(=O)c1ccc(C(=O)OC)c(NC(=O)CN(C)Cc2ccc(Cl)c(Cl)c2)c1	8
Cc1onc(-c2ccccc2)c1-c1nc2cc(Cl)ccc2c(=O)o1	15
O=C(CCCc1nc(-c2ccccc2Cl)no1)N1CCOCC1	6
O=C(O)/C=C/C(=O)N1CCN(S(=O)(=O)c2cc(C(F)(F)F)ccc2Cl)CC1	15
Cc1ccc(C(=O)NC(=S)NCCN2CCOCC2)cc1	18
Cc1ccc(NC(=S)Nc2cccc(-c3n[nH]c(=S)o3)c2)cc1	20
O=C(COC(=O)c1nc(Cl)ccc1Cl)NCc1ccccc1	3
Cc1ccc(S(=O)(=O)NCC(=O)NCC(=O)N2CCN(c3ncccn3)CC2)cc1C	21
O=C(Oc1ccc(OC(=O)c2ccco2)c(S(=O)(=O)c2ccc(Cl)cc2)c1)c1ccco1	12
COc1ccc(C(=O)OCN2C(=O)c3ccccc3C2=O)cc1	13
Fc1ccccc1C1c2[nH]c3ccccc3c2CCN1CCCn1cccn1 (centres undefined)	7
O=C(Cn1ncc(N2CCCC2)c(Cl)c1=O)c1ccc(Cl)cc1	8
COc1cccc(C(=O)Nc2nnc(Cc3ccc(OC)c(OC)c3)s2)c1	12
COc1ccc(-c2cc(-c3ccccc3)nc3ncnn23)cc1	10
Cc1ccc(S(=O)(=O)N2CCC(C(=O)N/N=C/c3ccncc3)CC2)cc1	1
O=C1CN(O)C=C2N=c3ccccc3=C2N1c1ccc([N+](=O)[O-])cc1	8
CCOC(=O)CSc1nnc(-c2ccoc2C)n1-c1ccc(C)cc1	21
COc1ccc2oc(C(=O)NC(C)(C)C)c(C)c2c1	-10
COc1ccc(C(=O)NCC(=O)N2CCCCC2)cc1OC	15
CC(=O)Nc1ccc(S(=O)(=O)Nc2nc3ccccc3nc2Nc2ccc(S(N)(=O)=O)cc2)cc1	18
COc1ccc2nc(Cl)c(C3CC(c4ccco4)=NN3C(=O)CCCC(=O)O)cc2c1 (centres undefined)	12
Cc1cccc(N/N=C/c2ccccc2O)c1	2
O=C(N/N=C/c1cccc(O)c1)NC1CCCCC1	1
COc1ccc2[nH]c3c(=O)n(Cc4ccc(C(=O)NCC5CCCO5)cc4)c(=S)[nH]c3c2c1 (centres undefined)	5
Cc1ccc2nc(Cn3cc(C(F)(F)F)cc(Cl)c3=O)cc(=O)n2c1	-17
Cc1cc(C(=O)COC(=O)c2ccccc2Br)c(C)n1CC1CCCO1 (centres undefined)	21
CC(C)CC1NC(=O)N(CC(=O)N2c3ccccc3NC(=O)C2(C)C)C1=O (centres undefined)	12
Fc1cccc(Cl)c1-c1nnc2ccc3ccccc3n12	-4
Cc1cc(C)nc(SCC(=O)N/N=C/c2cc(C)n(-c3ccccc3C)c2C)n1	9
